PINK1 expr mod: modulators of PINK1 expression; PINK1 immunofluorescence, high-content cytometry, 24 h; Potency, µM (series often up to 76.6 µM), for inactives: at the highest dose activation (PINK1 increase), actives largely listed as activators; 0.2% of 410,000 active; AID 624263; active = well fitted activation curve with a large enough effect; inconclusive = small, poorly fitted or top-dose-only effect; inactive = flat fitted curve, though single readings scatter; cell line not stated here;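 also: % of control where 0% means no effect; nearly all actives have a fitted effect of over 65% in size; a mitochondrial uncoupler was the plate control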
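Cells are seeded, rested 12 hours, then given compound at five concentrations or DMSO for 24 hours. After fixation, blocking and antibody staining, PINK1 amount and mitochondrial localization are scored; CCCP serves as control.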
The depositor's hits bear a star. Potency is read from the fitted curve at half-maximal effect.

SMILES	PINK1 expr mod
CCc1nc2cc(C(=O)N3CCC[C@H]3CO)cc(NC(=O)c3ccccc3OC)c2n1C	-0.7%
COc1ccccc1C1CN(CCNC(=O)c2cnsn2)Cc2ccccc2O1 (stereo unspecified)	0.7%
CC(C)c1c(C(=O)NC(c2cccnc2)C(F)(F)F)cnn1-c1nccc(-c2cccs2)n1 (stereo unspecified)	-1.0%
OC1CCN(Cc2ccc3c(c2)CN(Cc2ccc(Oc4ncccn4)cc2)CCO3)CC1	1.6%
COc1cc(=O)n2c(c1C(=O)NC(C)c1ccco1)CCN(CC=C(C)C)CC2 (stereo unspecified)	-1.0%
Cc1oc(-c2ccccc2NS(C)(=O)=O)nc1CN(C)Cc1ccc(Cl)cc1	-0.9%
O=C1c2ccccc2NC(c2ccc(-c3ccc(C(F)(F)F)cc3)o2)N1O (stereo unspecified)	2.3%
COc1ccc(F)c(CN2CCOc3ccc(CN4CCCCC4CO)cc3C2)c1 (stereo unspecified)	-0.5%
CCOC(=O)N1CCN(Cc2ccc3c(c2)CN(C(=O)c2noc4c2CCCC4)CCO3)CC1	1.2%
O=C(NCC1Cc2cc(F)cc(-c3cnccn3)c2O1)c1cccc(Cl)c1 (stereo unspecified)	-0.4%
Cn1cnnc1Sc1ccc(CN2CCOc3ccc(C4=Cc5ccccc5CC4)cc3C2)o1	-0.2%
CCn1c(-c2ccccc2F)nc2cc(NC(C)=O)cc(C(=O)N(C)Cc3ccccn3)c21	-0.4%
Cc1cc(C)n(-c2cccc(C(=O)NCC3Cc4cccc(-c5ccccn5)c4O3)c2)n1 (stereo unspecified)	-0.3%
O=C(Cc1nc2ccccc2[nH]1)N1CCC(n2c(C3CCC3)nc3cccnc32)CC1	0.2%
COc1cc(-c2cnc3ccccc3c2)cc2c1OCCN(S(=O)(=O)C[C@]13CC[C@H](CC1=O)C3(C)C)C2	-0.2%
CCOC(=O)CC(=O)Nc1ncnc2c1C(c1ccccc1)c1c(ccc3ccccc13)O2 (stereo unspecified)	3.6%
CC1(C)c2[nH]c3ccccc3c2C[C@@H]2C(=O)N(Cc3ccccc3F)C(=O)N21	0.3%
CCN1CCCC1CNC(=O)c1cnn(-c2nccc(-c3cc4ccccc4o3)n2)c1C1CC1 (stereo unspecified)	1.0%
COc1cccc(CNC(=O)c2c(OC)cc(=O)n3c2CCN(C(=O)c2ccccc2Cl)CC3)c1	0.5%
Cc1ccc(C(=O)NCCc2nnc3n2CCN(Cc2ccc4ccccc4c2)CC3)c(C)c1	0.2%
COc1cc(CNCc2cc3ccc(F)cc3nc2N2CCOCC2)cc(OC)c1OC	-0.7%
COc1cc(=O)n2c(c1C(=O)N(C)C(C)c1ccco1)CCN(C(=O)c1ccc(C(C)=O)cc1)CC2 (stereo unspecified)	-0.1%
COc1cc(-c2cc(C)c3cccc(OC)c3n2)cc2c1OCCN(C(=O)CCn1ccc(C)n1)C2	-0.1%
O=C(O)c1ccc(-c2noc(-c3cccc(F)c3)n2)cc1	1.8%
OC1(c2ccc3c(c2)CN(Cc2ccco2)CCO3)CCN(c2ccccc2F)CC1	-0.4%

Other structures
SMILES	PINK1 expr mod
Cc1ncc2c(c1CNC(=O)c1ccc3c(c1)OCO3)CCN(C(=O)c1cc3ccccc3n1C)C2	0.6%
Cc1oc(-c2ccccc2NC(=O)C2CCC2)nc1CNC(=O)c1ccc(C#CC(C)(C)O)cc1	2.8%
CCC1C(=O)NCCN1Cc1ccc2c(c1)CN(Cc1cccc(OC)c1OC)CCO2 (stereo unspecified)	-0.1%
COc1ccc2c(c1)CCNC2Cc1ccc(OC)c(O)c1 (stereo unspecified)	0.5%
COc1ccc(OC)c(-c2cc(Cl)c3c(c2)CC(CNC(=O)[C@@H]2CCCN2C(C)=O)O3)c1 (stereo partly specified)	0.1%
COc1ccc2c(c1)oc1c(SCc3nc4ccccc4[nH]3)nc(C)nc12	0.7%
CC(=O)Nc1ccccc1-c1nc(CNC(=O)c2ccc(Cl)cc2)c(C)o1	0.3%
Cn1nccc1C(=O)NCC1CCC2(CCN(Cc3cccc4ncccc34)CC2)O1 (stereo unspecified)	-0.2%
CC(C)(CO)NC(=O)c1cnn(-c2ncc3c(n2)-c2ccccc2CC3)c1C1CC1	-0.8%
Cn1ccnc1C1CCCCN1C(=O)CN1Cc2ccccc2OC(c2ccccc2F)C1 (stereo unspecified)	0.4%
COc1cccc(-c2csc3ncnc(Sc4nnnn4C)c23)c1	3.9%
CC(NC(=O)c1cccnc1)c1nnc2n1CCN(Cc1ccc(-c3ccccc3Cl)o1)CC2 (stereo unspecified)	2.9%
COc1ccc2c(c1)CCc1cnc(-n3ncc(C(=O)N4CCN(CCO)CC4)c3C3CC3)nc1-2	0.2%
COc1cc(OC)c(CN2CCOc3ccc(CN4CCC(O)CC4)cc3C2)c(OC)c1	0.2%
COc1ccc(C(=O)NCC2Cc3cccc(-c4ccc(S(C)(=O)=O)cc4)c3O2)c(OC)n1 (stereo unspecified)	-0.2%
O=C(NCCN1CCOCC1)c1cnn(-c2nccc(-c3ccccc3C(F)(F)F)n2)c1C1CC1	0.1%
O=C(c1cc(-c2ccccc2)on1)N1CCOc2ccc(CN3CCOCC3)cc2C1	-0.8%
Cc1cc(C)cc(C(=O)NCc2nc(-c3cccc(NC(=O)c4ccccn4)c3)oc2C)c1	-0.6%
Cc1cnc(-n2ncc(C(=O)NCC(C)(C)N3CCOCC3)c2C)nc1-c1cccs1	-0.4%
CCCS(=O)(=O)NCc1c(C)ncc2c1CCN(C(=O)c1cccc(-c3ccccc3F)c1)C2	-0.9%
COCCC1CCCCN1Cc1nc(N2CCCC2)c2cc(OC)c(OC)cc2n1 (stereo unspecified)	2.4%
COc1cc(=O)n2c(c1C(=O)NCc1ccco1)CCN(Cc1cccc(Cl)c1)CC2	1.6%
CCc1noc(C)c1C(=O)N1CCOc2ccc(CN3CCN(c4ccccn4)CC3)cc2C1	-0.4%
COCCN1CCN(C(=O)c2sc3ncnc(NCC4CCCO4)c3c2C)CC1 (stereo unspecified)	0.4%
COc1cc(=O)n2c(c1C(=O)NCc1ccc3c(c1)OCO3)CCN(C(=O)c1ccccc1F)CC2	1.4%

New compounds follow.
SMILES	PINK1 expr mod
COc1cccc(CNC(=O)c2c(OC)cc(=O)n3c2CCN(C(=O)C2CC24CCCC4)CC3)c1 (stereo unspecified)	1.8%
Cc1cnc(C)c(-c2cc(F)c3c(c2)CC(CNC(=O)c2cccc(Cn4cccn4)c2)O3)n1 (stereo unspecified)	0.1%
Oc1cc(NCc2ccc(Cl)cc2)cc2cccnc12	11%
CCS(=O)(=O)Nc1cc(C(=O)N[C@H]2CCCCNC2=O)c2c(c1)nc(-c1ccccc1)n2C	0.1%
CC(C)(C)n1nc(Cc2cccc3ccccc23)c2c(N)ncnc21	2.4%
COc1ccc(C(=O)N2CCCC(c3nc(SCc4ccccn4)ncc3C)C2)cc1F (stereo unspecified)	0.0%
Cc1oc(-c2ccccc2NC(=O)c2ccsc2)nc1CN(C)Cc1ccc2c(c1)CCCN2C	2.4%
COC(=O)C1CCCCN1Cc1nc(N2CCCN(C(C)=O)CC2)c2ccccc2n1 (stereo unspecified)	-1.1%
CCC(O)CNC(=O)c1cnn(-c2ncc3c(n2)-c2ccccc2CCC3)c1C1CC1 (stereo unspecified)	-0.1%
COc1ccccc1-c1ccc(C(=O)NCCN2CCOCC2)c(N2CCN(c3ccccc3F)CC2)n1	1.4%
COC(=O)[C@@H]1CCCN1C(=O)c1c(OC)cc(=O)n2c1CCN(Cc1ccc3c(c1)CCO3)CC2	0.1%
S=C(NCCCc1cnc[nH]1)NCCCN(Cc1ccc(Cl)cc1)c1ccc(Br)cn1	1.1%
Cn1nc(Cc2cccc3ccccc23)c(C#N)c1N	0.9%
COc1cccc(C(=O)N(Cc2cc3cc4c(cc3nc2N(C)C)OCO4)CC2CCCO2)c1 (stereo unspecified)	-0.7%
Cc1nc(SCc2nc3ccc([N+](=O)[O-])cc3[nH]2)c2oc3ccccc3c2n1	0.7%
OCCN1CCN(Cc2ccc3c(c2)CN(Cc2cnc(-c4ccccc4)s2)CCO3)CC1	0.9%
COCCN1CCN(C(=O)c2cnn(-c3ncc4c(n3)-c3ccc(OC)cc3CC4)c2C2CC2)CC1	0.4%
Cc1oc(-c2cccc(NC(=O)c3ccccn3)c2)nc1CNC(=O)c1cc(F)c(F)cc1F	-0.9%
Cc1cc2c(c(-c3nc4ccccc4s3)c1)OC(CNC(=O)c1occc1C)C2 (stereo unspecified)	0.5%
Cc1ncc2c(c1CNC(=O)CN1CCCCC1)CCN(C(=O)c1ccc(F)cc1Cl)C2	0.2%
Cc1oc(-c2ccccc2NC(=O)c2ccccc2)nc1CNC(=O)c1cccc(-n2cccn2)c1	3.6%
COc1ccccc1-c1cc2c(c(OC)c1)OCCN(C(=O)Cn1nc(-c3ccccc3)c3ccccc3c1=O)C2	0.2%
COc1ccc(CN2CCCC(n3cc(C(=O)NC4CCCC4)nn3)C2)c2ccccc12 (stereo unspecified)	1.4%
CN(C)C1CCN(Cc2cc(COCc3ccccc3)c3cccnc3c2O)C1 (stereo unspecified)	6.9%
COCC1CCCN(c2nc(CN3CCN(C(=O)c4ccco4)CC3)nc3ccccc23)C1 (stereo unspecified)	0.5%

Quoted at random: 4 records from the list.
SMILES	PINK1 expr mod
Cn1nc(Cc2cccc3ccccc23)c(C#N)c1N	0.9%
CCC(O)CNC(=O)c1cnn(-c2ncc3c(n2)-c2ccccc2CCC3)c1C1CC1 (stereo unspecified)	-0.1%
Cc1oc(-c2ccccc2NC(=O)c2ccsc2)nc1CN(C)Cc1ccc2c(c1)CCCN2C	2.4%
S=C(NCCCc1cnc[nH]1)NCCCN(Cc1ccc(Cl)cc1)c1ccc(Br)cn1	1.1%

More results
SMILES	PINK1 expr mod
Cc1ccc(-c2ccnc(-n3ncc(C(=O)NCCN4CCOCC4)c3C3CC3)n2)o1	1.0%
CCn1c(-c2ccccc2F)nc2cc(NC(C)=O)cc(C(=O)NCc3ncc(C)[nH]3)c21	-0.8%
CCN1CCCC1CNC(=O)c1cnn(-c2nccc(-c3cccs3)n2)c1C(C)C (stereo unspecified)	-0.6%
Cc1onc(-c2ccccc2)c1C(=O)NCCN1Cc2ccccc2OC(c2ccsc2)C1 (stereo unspecified)	2.0%
COc1cc(=O)n2c(c1C(=O)NCc1nonc1C)CCN(C(=O)c1cccc(C)c1C)CC2	-0.2%
COC(=O)c1ccccc1-c1cc(C)cc2c1OC(CNC(=O)c1cc(C)on1)C2 (stereo unspecified)	-0.4%
COc1cc2nc(N(C)C)c(CNCc3nonc3C)cc2c(OC)c1OC	-0.2%
C=CCNc1oc(-c2ccc(-c3ccccc3)cc2)nc1C#N	16%
COc1cc(OC)c(OC)cc1CN1CCCC(c2[nH]ncc2-c2cccc(C(F)(F)F)c2)C1 (stereo unspecified)	0.7%
Cc1nc(SCc2nc3c([N+](=O)[O-])cccc3[nH]2)c2oc3ccccc3c2n1	1.3%
CC(C)c1c(C(=O)N(C)Cc2cccc3ncccc23)cnn1-c1nccc(-c2ccco2)n1	-0.3%
Oc1cc(-c2ccncc2)cc2cccnc12	-0.4%
Cc1ccc2c(c1)cc(CN(C)Cc1nc(C)cs1)c(=O)n2C	-0.1%
Cc1nc2sccn2c1CN1CCC2(CC1)CC2C(=O)Nc1ccc2c(c1)OCO2 (stereo unspecified)	-0.5%
Cc1nc(NCc2cccc3c2OCO3)sc1-c1ccn(CC2CCCN(C)C2)n1 (stereo unspecified)	-0.5%
COc1ccc(CN2CCOc3c(cc(-c4ccc(OC)nn4)cc3OC)C2)c(O)c1	-0.7%
CCC1(C2CCN(C(=O)c3ccc(C)c(C)c3)CC2)NC(=O)N(CCc2scnc2C)C1=O (stereo unspecified)	0.5%
Cc1cc(C(=O)NCC2CCC3(CCN(Cc4ccc5ccccc5c4)CC3)O2)n(C)n1 (stereo unspecified)	0.7%
O=C1CC[C@@H](C(=O)NCC2Cc3cc(Cl)cc(-c4ccc5[nH]ccc5c4)c3O2)N1 (stereo partly specified)	0.0%
Cc1cccc(C(=O)N2CCOc3ccc(CN(C)Cc4cc(C5CC5)n[nH]4)cc3C2)n1	-0.7%
OC(c1ccc2c(c1)CN(Cc1cccn1-c1cccnc1)CCO2)C1CCCCC1 (stereo unspecified)	3.3%
Cc1ccc2oc(NC3=NC4(CCCC4)C4=C(CCCC4=O)N3)nc2c1	9.8%
CCN1CCCC1CNC(=O)c1cnn(-c2nccc(-c3ccco3)n2)c1C1CC1 (stereo unspecified)	-1.2%
COc1ccccc1C(=O)N[C@@H]1c2ccccc2C2(CCN(Cc3cccnc3)CC2)[C@H]1O	-0.1%
COC(=O)[C@@H]1CCCN1C(=O)c1c(OC)cc(=O)n2c1CCN(Cc1ccc3cccnc3c1)CC2	2.0%
Cc1cnc(-n2ncc(C(=O)N(C)Cc3cccc4ncccc34)c2C(C)C)nc1-c1ccc(F)cc1	1.0%
COC(=O)[C@@H]1CCCN1C(=O)c1cnn(-c2nccc(-c3cc(C)sc3C)n2)c1C1CC1	-0.6%
O=C(CCCCCCC(=O)Nc1ccccc1)NO	2.2%
Cc1nn(C)c(Cl)c1CN1CCOc2ccc(CN3CCC(Oc4cccnc4)CC3)cc2C1	0.3%

Reformatted field by field: two of the compounds above.
O=C(CCCCCCC(=O)Nc1ccccc1)NO
  PINK1 expr mod: 2.2%

Cc1nn(C)c(Cl)c1CN1CCOc2ccc(CN3CCC(Oc4cccnc4)CC3)cc2C1
  PINK1 expr mod: 0.3%

In another format: entries from further up
SMILES: COC(=O)C1CCCCN1Cc1nc(N2CCCN(C(C)=O)CC2)c2ccccc2n1 (stereo unspecified)
  PINK1 expr mod: -1.1%

SMILES: Cc1oc(-c2ccccc2NC(=O)c2ccccc2)nc1CNC(=O)c1cccc(-n2cccn2)c1
  PINK1 expr mod: 3.6%

These rows are one share of the data; the hit share may differ from the screen's.
